High-throughput results deposited in PubChem BioAssay by National Center for Advancing Translational Sciences (NCATS).
Methyltransferases: Primary Screen for Target Class Profiling of Small Molecule Inhibitors of Methyltransferases. purified enzyme, MTase-Glo SAH luminescence; hits give low values. calls only at 40 µM. actives 3.9% (n = 25,000); active = -50% or lower on at least one of six enzymes; inconclusive = the cases between; inactive = as a rule above -30% on all six;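 further: enzymes were COMT GAMT GNMT HNMT NNMT and PNMT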
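Each enzyme was assayed with SAM and its substrate. SAH formation detected by MTase-Glo luminescence; single-point 40 uM screen[…].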
Calls only; i = inactive; ? = inconclusive; + = active, no number. On the % scale 0 is the no-effect control and ±100 the full control effect. This is a subset, so the mix of outcomes need not match the whole.

SMILES | Methyltransferases
CC(=O)Nc1c2n(c3ccc(F)cc13)CC(C)(C(=O)NC1CCCC1)N(Cc1cccnc1)C2=O (stereo not drawn) | i
Clc1ccccc1CNCC1CCC(CNCc2ccccc2Cl)CC1 (stereo not drawn) | i
O=C(CCc1ccccc1)N1CCNc2cnc(Nc3cccnc3)nc2C1 | +
Cc1ccc(CSc2nnc3n(CCC(C)C)c(=O)c4ccccc4n23)cc1 | i
Cc1cnc(-c2cccnc2)n1C1CCN(S(=O)(=O)c2ccc3c(c2)OCCO3)CC1 | i
C=CCn1c(=O)c2ccc(C(=O)NC(C)CC)cc2n2c(=O)n(CC(=O)Nc3ccccc3C)nc12 (stereo not drawn) | i
C[C@]12C=CC(=O)C=C1CC[C@@H]1C2=CC[C@]2(C)[C@@H](C(=O)CN3CCN(c4cc(N5CCCC5)nc(N5CCCC5)n4)CC3)CC[C@@H]12 | i
CCCCNC(=O)c1ncn2c1C(=O)N(CCC)C(C)(C(=O)NCCC(C)C)C2 (stereo not drawn) | i
COC(=O)c1cc2n(n1)CC(C)(C(=O)NC1CCC(C)CC1)N(c1cccc(C)c1C)C2=O (stereo not drawn) | i
O=C(CCc1nnc2n(Cc3ccc(Cl)cc3)c(=O)c3ccccc3n12)NCc1ccccn1 | i
Cn1ccnc1 | i
COc1ccc(C(=O)N2CCC(O)(CO)CC2)c(OC)c1OC | i
CC(=O)OC1C(OC(=O)c2ccccc2)C2C(C)(C)CC(=O)CC2(C)C23CCC(C)(C2)C(O)CC13 (stereo not drawn) | i
CN1CCN(C(=O)CC[C@@H]2CNC(=O)[C@@H]3C[C@H](NC(=O)c4cccc(F)c4)CN23)CC1 | i
CN(Cc1nccs1)C(=O)CC(c1ccccc1)c1cccc(Cl)c1 (stereo not drawn) | i
CC(C)(O)CC(CO)NC(=O)CC(O)CC(=O)Cc1ccccc1 (stereo not drawn) | i
Cc1ccc(C(=O)C(C)n2nc3n(CC(C)C)c(=O)c4ccc(C(=O)NCC(C)C)cc4n3c2=O)cc1C (stereo not drawn) | i
CCc1cc2c(cc3n2CC(C)(C(=O)NC2CCC(C)CC2)N(c2cccc(Cl)c2C)C3=O)s1 (stereo not drawn) | i
CCOC(=O)c1sc(NC(=O)[C@H](C(C)C)n2c(=O)[nH]c3ccccc3c2=O)nc1C | i
CCCN1C(=O)c2cc(C(=O)NCc3ccccc3Cl)nn2CC1(C)C(=O)NC1CCCC1 (stereo not drawn) | i
Cc1ccc(CNC(=O)c2cc3n(n2)CC(C)(C(=O)NCc2ccccc2)N(C)C3=O)o1 (stereo not drawn) | i
Cc1cc(Cl)ccc1NC(=O)c1ncn2c1C(=O)N(C1CC1)C(C)(C(=O)NC1CCCC1)C2 (stereo not drawn) | i
CCOCCCNc1nc2c(S(=O)(=O)c3ccccc3)nnn2c2ccc(Cl)cc12 | i
COc1ccc(Nc2nc3c(S(=O)(=O)c4ccc(C)cc4)nnn3c3ccccc23)cc1OC | i
CC(C)OCCCn1c(=O)c2ccccc2n2c(=O)n(Cc3ccc(F)cc3Cl)nc12 | i
COCc1cn2c(=O)n(C)cc(-c3ccnc(OC)c3)c2n1 | i
COc1ccccc1CNC(=O)c1cc2n(n1)CC(C)(C(=O)NCc1ccccc1)N(C)C2=O (stereo not drawn) | i
CCCCNc1nc2c(-c3cccc(Br)c3)nnn2c2ccccc12 | i
Cc1ccc(C(=O)CSc2nnc3n(CC(C)C)c(=O)c4ccc(C(=O)NC(C)C)cc4n23)c(C)c1 | i
CNC(=O)[C@@H]1CN(C(=O)c2conc2C)C[C@H]1COC | i
Cc1ccccc1CNC(=O)C(C)n1ccc2cc(S(=O)(=O)N3CCCC3)ccc21 (stereo not drawn) | i
Cc1ccc(Cn2c(=O)c3ccccc3n3c(-c4ccc(Cl)cc4)nnc23)cc1 | i
Cc1ccc2c(c1)N(S(=O)(=O)c1ccc3[nH]c4c(c3c1)CCCC4)CCO2 | i
O=C(NCC(F)F)c1cc(-c2cccs2)c2cccn2n1 | ?
CCN1C(=O)c2cc(C(=O)Nc3ccc(C)cc3)nn2CC1(C)C(=O)NC1CCCC1 (stereo not drawn) | i
O=C(CN1C(=O)COc2ccc(C(=O)COc3ccccc3F)cc21)Nc1ccc(F)cc1 | i
O=C(NCc1ccncc1)C1CN(Cc2ccccn2)CC12CCOCC2 (stereo not drawn) | i
CC(=O)OC[C@]12[C@H](OC(C)=O)C(=O)[C@@H]3[C@@H](O)[C@@]14O[C@@]3(C)COC(=O)c1cccnc1[C@@H](C)[C@H](C)C(=O)O[C@@H]([C@H](O)[C@@H]2OC(C)=O)[C@]4(C)O | i
Cc1nn(CC(=O)NC(C)Cc2cnccn2)c(=O)n1CCc1ccccc1 (stereo not drawn) | i
Cc1ccc(CNC(=O)CSc2nnc3n(C)c(=O)c4ccc(C(=O)NC5CCCCC5)cc4n23)cc1 | i
COc1ccc(OC)c(S(=O)(=O)N2CCc3nc(-c4ccccc4)ncc3C2)c1 | i
Cc1ccccc1CN1C(=O)c2cc3occc3n2CC1(C)C(=O)NC1CCCCC1 (stereo not drawn) | i
O=C(CC1CCOCC1)N1CCN(Cc2ccc(F)cc2F)CC1 | i
COc1ccccc1-c1ccc(C(=O)N2CCC(C(=O)Nc3ccccc3Cl)CC2)cc1 | i
O=C1NCCCc2[nH]c(-c3cnn(-c4ccc(F)cc4)c3)nc21 | i
CC1CCCC(O)CC(=O)c2c(O)cc(O)cc2CC(=O)O1 (stereo not drawn) | i
Cc1ccn(-c2cc(Cl)ccc2[C@@H](Oc2cc(-c3ccc(C[C@H](N)C(=O)O)cc3)nc(N)n2)C(F)(F)F)n1 | +
O=c1c2ccccc2n2c(-c3ccc(F)c(F)c3)nnc2n1Cc1ccccc1 | i
COCCN1CC2(CCCN(C(=O)CNC(N)=O)C2)CCC1=O (stereo not drawn) | i
CCN1C(=O)c2cc3ccccc3n2CC1(C)C(=O)NCC(=O)NCc1cccc(F)c1 (stereo not drawn) | i
Cc1cccc(C(C)C)c1NC(=O)Cn1c(=O)oc2cc(S(=O)(=O)N3CCCC3)ccc21 | i
Cc1nc2ccc(CN(C)c3ccc(C(=O)NC(CCC(=O)O)C(=O)O)s3)cc2c(=O)[nH]1 (stereo not drawn) | ?
COC(=O)c1cc2n(n1)CC(C)(C(=O)NC1CCCCC1)N(c1cccc(C)c1C)C2=O (stereo not drawn) | i
CC1(C(=O)NC2CCCCCC2)Cn2c(cc3sccc32)C(=O)N1CCc1ccc(Cl)cc1 (stereo not drawn) | i
OCC(O)CCO/N=C1/C(c2c(O)[nH]c3ccccc23)=Nc2ccccc21 (stereo not drawn) | ?
Cc1cc(Cl)c2oc(C(=O)N(Cc3c(C)nn(C)c3C)C3CC3)c(C)c2c1 | i
CC(C)OCCCNC(=O)CCn1ccc2cc(S(=O)(=O)N3CCCCC3)ccc21 | i
COc1ccccc1OCCNC(=O)c1cn2ccnc(-c3ccc(C)cc3)c2n1 | i
COc1ccc(CN2C(=O)c3ccc(-c4ccco4)n3CC2(C)C(=O)NC2CCCCCC2)cc1 (stereo not drawn) | i
CC(C)(CN1CCC(Cc2ccc(C(=O)O)cc2)C1)N1CCOCC1 (stereo not drawn) | i
Next entries.
SMILES | Methyltransferases
COc1ccc(CNC(=O)CC[C@]23CC[C@](C)(O)C[C@H]2C(C)(C)C[C@@H]3NC2CCOCC2)cc1 | i
COc1ccc(-c2cc3nc4c(c(=O)n3[nH]2)CN(C(=O)c2ccc(C)nc2)CC4)cc1 | i
Cc1ncsc1CN(Cc1ccccc1)C(=O)c1cn(CCC2CCCCC2)nn1 | i
CC1=NOC2(CCN(CC3CC3)CC2)C1 | i
CC(C)n1nccc1S(=O)(=O)N[C@@H]1[C@@H](Cc2ccccc2)[C@H]2OCC[C@@H]12 | i
CCCN1C(=O)c2c(C(=O)NCc3ccc(OC)cc3)ncn2CC1(C)C(=O)NCc1ccc(C)cc1 (stereo not drawn) | i
O=C1COCCN1C1CCN(Cc2ccc(F)cc2)CC1 | i
Cc1noc(C)c1S(=O)(=O)N1CCc2n[nH]c(=O)n2CC1 | i
CCCNC(=O)N1Cc2c(sc3c2CCCC3)-n2cccc2C1c1cccs1 (stereo not drawn) | i
CCCn1c(=O)c2ccc(C(=O)NC3CCCC3)cc2n2c(=O)n(CC(=O)NC(C)(C)C)nc12 | i
CO[C@H]1O[C@@H]2O[C@]3(C)CC[C@H]4[C@H](C)CC[C@@H]([C@H]1C)[C@@]24OO3 | ?
CC1=CC(=O)CC(C)(C)[C@@]1(O)CC[C@@H](C)O[C@@H]1O[C@H](CO)[C@@H](O)[C@H](O)[C@H]1O | i
CCn1c(-c2nonc2N)nc2c(C#CCO)ncc(OCCCN)c21 | ?
Cc1ccc(N2CCN(C(=O)c3noc(-c4ccc[nH]c4=O)n3)CC2)cc1 | i
COC(=O)c1ncn2c1C(=O)N(Cc1ccc(OC)c(OC)c1)C(C)(C(=O)NC1CCCCC1)C2 (stereo not drawn) | i
COc1cc(/C=C/C(=O)OC[C@H]2O[C@@H](OC3OC=C(C(=O)O)C4C(O)CC(C)(O)C34)[C@H](O)[C@@H](O)[C@@H]2O)cc(OC)c1O (stereo partly drawn) | +
CCCN1C(=O)c2cc(C(=O)NCCCOC(C)C)nn2CC1(C)C(=O)NC1CCCC1 (stereo not drawn) | i
CCOc1ccc(CCNC(=O)c2cc3n(n2)CC(C)(C(=O)NC2CCCCC2)N(C)C3=O)cc1 (stereo not drawn) | i
CC1(C(=O)NC2CCCC2)Cn2c(cc3ccccc32)C(=O)N1C1CCCCC1 (stereo not drawn) | i
O=C(NC1CCN(CCCCC2(C(=O)NCC(F)(F)F)c3ccccc3-c3ccccc32)CC1)c1ccccc1-c1ccc(C(F)(F)F)cc1 | ?
O=C(CCc1nnc2n(Cc3ccccc3)c(=O)c3ccccc3n12)NCc1ccc(F)cc1 | i
COc1ccc(-c2nnn3c2nc(N2CCOCC2)c2ccccc23)cc1 | i
CCOC(=O)c1cn(C2CN(C(=O)Cc3cccc(Cl)c3)C2)nn1 | i
COc1ccc(-c2ccc3c(N4CCOCC4)nc(N4CC(C)OC(C)C4)nc3n2)cc1CO (stereo not drawn) | i
COc1ccc(NC(=O)CSc2nnc3n(CC(C)C)c(=O)c4cc(F)ccc4n23)cc1OC | i
CCC1Oc2ccc(Cl)cc2N(CC(=O)Nc2ccc3c(c2)C(=O)N(C)C2=NCCN23)C1=O (stereo not drawn) | i
Cn1nccc1C(=O)N1CCC(c2nc(CCOCC3CCCC3)no2)C1 (stereo not drawn) | i
COc1cc(C(O)CO)ccc1OS(=O)(=O)O (stereo not drawn) | i
C[C@@H]1O[C@@H](O[C@H]2[C@@H]3C=CO[C@@H](O[C@@H]4O[C@H](CO)[C@@H](O)[C@H](O)[C@H]4O)[C@@H]3[C@@]3(CO)O[C@@H]23)[C@H](OC(=O)/C=C/c2ccccc2)[C@H](O)[C@H]1O | i
CCOC(=O)c1cc2n(n1)CC(C)(C(=O)NC1CCCC1)N(c1cc(C)ccc1C)C2=O (stereo not drawn) | i
CC(C)Cn1c(=O)c2ccc(C(=O)NC3CCCC3)cc2n2c(=O)n(Cc3c(F)cccc3Cl)nc12 | i
O=C(c1cc2ccccc2[nH]1)N1CCCC2(C1)NC(=O)N(Cc1ccccc1)C2=O (stereo not drawn) | i
CCC(C)NC(=O)c1ccc2c(=O)n(C(C)C)c3nn(CC(=O)Nc4cccc(C)c4)c(=O)n3c2c1 (stereo not drawn) | i
COc1ccc(C(=O)Cn2nc3n(Cc4ccc(C)cc4)c(=O)c4ccccc4n3c2=O)cc1OC | i
COc1cccc(-c2cccc(C(=O)N3CCN(C(=O)Cc4cccc(Cl)c4)CC3)c2)c1 | i
CN1C(=O)CC[C@]2(C(=O)NCc3ccco3)CCCC[C@@H]12 | i
CCOc1ccc(CCN2C(=O)c3cc(C(=O)OC)nn3CC2(C)C(=O)NC2CCC(C)CC2)cc1 (stereo not drawn) | i
COCCCN1C(=O)c2cc3oc(C)cc3n2CC1(C)C(=O)NC1CCCCCCC1 (stereo not drawn) | i
CC1(C(=O)NC2CCCCC2)Cn2c(c(-n3cccc3)c3ccccc32)C(=O)N1Cc1cccs1 (stereo not drawn) | i
O=C(N[C@@H]1CN(Cc2ccccc2)C[C@H]1CO)c1cccnc1 | i
CC1=CCC2C(C)(C)CCCC2(C)C1CC12OC1C(O)C(CO)=CC2O (stereo not drawn) | i
COc1ccc(CN2C[C@@H](CO)[C@H](c3ccccn3)C2)cc1C | i
Cc1cncc2cccc(S(=O)(=O)N3CCCNC[C@@H]3C)c12 | ?
CCN(CC)c1cc(CCC(=O)NCc2cc(F)ccc2F)ccn1 | ?
Cc1ccc(C)c(N2CCN(C(=O)c3ccc4c(=O)nc5c(-c6ccccc6F)n[nH]n5c4c3)CC2)c1 | i
CCC(=C(c1ccc(OCCN2CCCC2)cc1)c1ccc(OCCN2CCCC2)cc1)c1ccccc1 | +
